Bioassay records: PubChem, Johns Hopkins Ion Channel Center
KCNQ2 block = KCNQ2 potassium channel inhibitors, primary screen, cell-based, CHO-K1, FluxOR thallium flux, B-score (AID 2156); 20 min; hits give low values; only compounds with negative scores are shown here; some inactives read as strong as hits; B-score at 10 µM; 310,000 tested, 1.1% active;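 active = fluorescence ratio B-score at most minus 3 library SDs, with starting brightness B-score within 2 library SDs, cut at about -5.5 in these data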
Target sequence (O88943 whole entry, looked up): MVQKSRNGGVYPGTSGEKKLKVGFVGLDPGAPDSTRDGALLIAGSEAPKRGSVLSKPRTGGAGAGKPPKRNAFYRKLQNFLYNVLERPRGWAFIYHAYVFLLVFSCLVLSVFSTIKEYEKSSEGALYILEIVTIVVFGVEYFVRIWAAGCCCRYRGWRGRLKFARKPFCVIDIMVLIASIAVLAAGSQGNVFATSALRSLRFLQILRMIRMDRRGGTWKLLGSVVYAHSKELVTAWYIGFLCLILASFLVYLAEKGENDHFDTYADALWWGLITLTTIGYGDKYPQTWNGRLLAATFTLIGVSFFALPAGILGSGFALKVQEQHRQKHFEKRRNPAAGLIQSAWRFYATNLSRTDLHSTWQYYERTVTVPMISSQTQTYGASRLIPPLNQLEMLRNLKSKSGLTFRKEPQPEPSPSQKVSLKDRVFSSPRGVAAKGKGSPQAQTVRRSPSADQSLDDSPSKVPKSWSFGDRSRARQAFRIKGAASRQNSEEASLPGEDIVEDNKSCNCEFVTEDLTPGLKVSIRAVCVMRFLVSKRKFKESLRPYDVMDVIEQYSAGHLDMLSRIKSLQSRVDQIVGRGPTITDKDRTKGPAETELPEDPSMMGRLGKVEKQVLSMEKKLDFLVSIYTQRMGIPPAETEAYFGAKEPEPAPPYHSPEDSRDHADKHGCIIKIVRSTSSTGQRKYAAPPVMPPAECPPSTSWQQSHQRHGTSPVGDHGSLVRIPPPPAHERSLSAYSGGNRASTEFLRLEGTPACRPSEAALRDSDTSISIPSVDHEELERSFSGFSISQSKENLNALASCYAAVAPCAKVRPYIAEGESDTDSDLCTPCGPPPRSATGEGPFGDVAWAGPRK
KCNQ2 block baseline = also measured in KCNQ2 block; calls as there; B-score; measured here: initial fluorescence intensity artifact check;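 brightness before thallium and not channel activity; 0 = typical well and far values either way flag optical interference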
Active calls of the source: *; i = inactive. These rows are one share of the data; rates above refer to the full screens.

no.	Structure	KCNQ2 block	KCNQ2 block baseline
1	Cc1ccccc1C1CC(c2ccccc2OC(F)F)Nc2ncnn21 (stereo unspecified)	i	-0.01
2	O=C(CCS(=O)(=O)c1cccc2nsnc12)NCc1ccccc1	i	0.76
3	CC(C)N1CC(C(=O)Nc2ccc(Br)c(Cl)c2)CC1=O (stereo unspecified)	i	-0.37
4	O=C(Nc1ccccc1C(=O)N1CCCC1)c1cccc(S(=O)(=O)N2CCCCCC2)c1	i	0.26
5	CCOC(=O)C(=O)C1=C(N2CCOCC2)/C(=C\c2ccc(F)cc2)CC1	i	-0.64
6	CC(=O)c1cccc(NC(=O)c2ccc3c(=O)n4c(nc3c2)CCCCC4)c1	i	-0.98
7	O=C(NCc1ccco1)/C(=C\c1ccco1)NC(=O)c1ccc(Br)o1	i	-0.71
8	Cc1cccc(OCc2nnc(NC(=O)c3cccs3)s2)c1	i	0.17

no.	Structure	KCNQ2 block	KCNQ2 block baseline
9	COC(=O)N1CCN(c2ccc(Cl)c(Cl)c2)CC1	i	0.88
10	CC(C)N1CCC(NC(=O)Nc2ccc3c(c2)OCO3)CC1	i	0.09
11	Cc1nc2ccccc2c2oc(C(=O)NCc3ccccn3)cc12	i	0.1
12	O=C(/C=C/c1ccc2c(c1)OCO2)NCc1cn2cc(Cl)ccc2n1	i	-0.39
13	N#CCCN(Cc1cccs1)C(=O)Nc1ccc(F)cc1	i	2.11
14	COc1cc(/C=N/NC(=O)CCN2CCCCC2)ccc1O	i	1.54
15	COc1ccc(NC(=O)NNC(=O)c2ccc3ccccc3c2O)cc1OC	i	0.6
16	CCc1nnc(NC(=O)CSc2nnc(CNc3ccc(F)cc3)n2C2CCCCC2)s1	i	0.66

no.	Structure	KCNQ2 block	KCNQ2 block baseline
17	Cc1nc(N)c(CC(Br)CBr)c(Cl)n1 (stereo unspecified)	i	0.41
18	COc1ccc(Cl)cc1S(=O)(=O)N1CCCC(C(=O)NCc2ccccc2)C1 (stereo unspecified)	i	-2.1
19	COc1cc2c(cc1Cl)/C(=C\CCN(C)C)c1ccccc1S2	i	-0.5
20	COC(=O)c1ccc(CNC(=O)/C=C/c2cc([N+](=O)[O-])ccc2OC(F)F)cc1	i	0.5
21	O=C(CCC(=O)n1ncc2ccccc21)N1CCCCC1	i	1.41
22	Cc1ccccc1NS(=O)(=O)c1cc2c3c(c1)CC(=O)N3CCC2	i	-0.64
23	[2H]c1c([2H])c([2H])c(C(=O)c2sc(N3CCCCCC3)nc2-c2ccccc2)c([2H])c1[2H]	i	0.9
24	CCOC(=O)N1CCN(C(=O)CSc2nc(=O)n3cccc(C)c3n2)CC1	i	0.61

no.	Structure	KCNQ2 block	KCNQ2 block baseline
25	CC(=O)c1cccc(-n2c(CCC(=O)O)ccc2-c2cccs2)c1	i	0.57
26	COC(=O)C1=C(N)Oc2c(oc(CO)cc2=O)C1c1ccc(F)cc1 (stereo unspecified)	i	1.04
27	C=CCC1(CC=C)CCCN1C(=O)c1cc(COc2ccc(C)nc2)on1	i	-0.24
28	COc1ccc(/C=N/Nc2ncc(C(F)(F)F)cc2Cl)c(OC)c1OC	i	0.03
29	CC(=O)Oc1ccccc1C1OCCN1C(C)=O (stereo unspecified)	i	1.04
30	Cn1c(=O)c2c(nc(CN3CCOCC3)n2CCCc2ccccc2)n(C)c1=O	i	-0.02
31	O=C(CC1(O)C(=O)c2ccccc2C1=O)c1ccccc1	i	-2.59
32	CCCOc1ccc(/C=C/C(=O)OCC(=O)N(C)c2c(N)n(Cc3ccccc3)c(=O)[nH]c2=O)cc1OCC	i	-1.34

no.	Structure	KCNQ2 block	KCNQ2 block baseline
33	Cc1nn2c3c(cnc2c1-c1ccccc1)C(=O)CC(c1ccccc1)C3 (stereo unspecified)	i	-0.81
34	COCCN1CCN(C(=O)C2CCC(=O)N(CCc3ccccc3)C2)CC1 (stereo unspecified)	i	0.26
35	Cc1ccc(S(=O)(=O)Oc2ccccc2/C=N/O)cc1	i	1.39
36	O=C1C2C3C=CC(C3)C2C(=O)N1Cc1cccnc1 (stereo unspecified)	i	-0.94
37	Cc1ccc2oc(=O)n(Cc3ccc(OC(C)C)cc3)c2c1	i	0.24
38	CCOC(=O)CNC(=O)CSc1ncccc1-c1nc2ccccc2[nH]1	i	1.02
39	O=C(CSc1nnc(CNc2ccc(F)cc2)o1)N1c2ccccc2Sc2ccccc21	i	-0.26
40	O=C(Nc1ccccc1F)c1ccc2c(c1)OCO2	i	-0.83

no.	Structure	KCNQ2 block	KCNQ2 block baseline
41	COc1ccc(C(=O)/C=C/c2ccccc2)c(O)c1	i	-0.2
42	COc1cc(OC)cc(C(=O)Nc2ccc(S(=O)(=O)Nc3nc(C)cc(C)n3)cc2)c1	i	0.1
43	O=C(NCCN1CCN(c2cccc(Cl)c2)CC1)Nc1ccccc1	i	-0.01
44	CC(=O)N1CC[n+]2c(-c3ccc([N+](=O)[O-])cc3)csc21	i	0.81
45	Cc1cc(C)c(C(=O)NC2CC(C)(C)Cc3c2cnn3-c2ccccc2)o1 (stereo unspecified)	i	0.47
46	CCCc1cc(=S)n2c([nH]c3ccccc32)c1C#N	i	-0.1
47	CSc1nc(Oc2ccccc2)c2sccc2n1	i	-0.03
48	CC1=NN(C(N)=S)C(=O)C1N=Nc1c(Cl)cc([N+](=O)[O-])cc1Cl (stereo unspecified)	i	-1.07

no.	Structure	KCNQ2 block	KCNQ2 block baseline
49	CCC(=O)Nc1nnc(CCc2ccccc2)s1	i	0.29
50	CC12CCC(=O)N1C(C(=O)NCc1ccccc1F)CS2 (stereo unspecified)	i	0.92
51	O=C(Cn1nc(C(=O)O)c2ccccc2c1=O)Nc1ccccc1C(F)(F)F	i	2.5
52	O=C(/C=C/c1ccc(Cl)cc1Cl)N(Cc1ccc(Cl)cc1)C1CCS(=O)(=O)C1 (stereo unspecified)	i	-1.99
53	Cc1[nH]n(-c2ccccc2)c(=O)c1N=Nc1cccc(S(=O)(=O)N2CCOCC2)c1	i	0.52
54	CCc1ccc(C(=O)Nc2ccc(OC)c(S(=O)(=O)N3CCOCC3)c2)cc1	i	0.3
55	O=C1SCC(c2ccc(Cl)cc2Cl)=NN1Cc1nnc(-c2ccccc2)o1	i	1.64
56	O=c1c2ccccc2nc2n1CC/C2=C\N1CCN(c2ccc([N+](=O)[O-])cc2)CC1	i	-0.71

no.	Structure	KCNQ2 block	KCNQ2 block baseline
57	Cn1c(/C(C#N)=C(\O)c2ccc([N+](=O)[O-])cc2)nc2ccccc21	i	-0.74
58	O=C(NNc1ncnc2c1cnn2-c1ccc(F)cc1)c1cccs1	i	0.15
59	COc1ccc(NC(=O)CS(=O)CC(=O)Nc2ccc(-n3cnnn3)c(C)c2)cc1 (stereo unspecified)	i	-0.21
60	CC(C)(C)n1nc2c(c1NC(=O)c1ccc(Cl)c([N+](=O)[O-])c1)CS(=O)(=O)C2	i	-0.01
61	Cc1cc(=O)[nH]c2c1c(C)nn2C(C)(C)C	i	-2.16
62	COc1ccc(CNC(=O)c2cnc3cc(C)ccn3c2=O)cc1	i	1.35
63	O=C1c2ccccc2NC(c2cccnc2)N1c1ccccc1F (stereo unspecified)	i	-0.73
64	O=C(Cc1cccs1)Nc1cccc(-c2nc3ccccc3o2)c1	i	2.18

no.	Structure	KCNQ2 block	KCNQ2 block baseline
65	COc1ccc2cc(C(c3nnnn3CCc3ccccc3)N3CCCC(C)C3)c(=O)[nH]c2c1 (stereo unspecified)	-8.58*	-0.01*
66	CCCCOc1ccc(CSC(=N)N)cc1Cl	i	0.84
67	Cc1onc(-c2ccccc2Cl)c1C(=O)NC(=S)Nc1ccccc1F	i	0.22
68	Cc1ccc2nc(-c3ccc(N4C(=NC(=O)CCC(=O)O)SC5CS(=O)(=O)CC54)cc3)sc2c1 (stereo unspecified)	i	-0.05
69	CC1(C)CC(=O)C2=C(C1)OC(N)=C(C#N)[C@@H]2c1ccccc1[N+](=O)[O-]	i	3.53
70	CCN1CCS/C1=C/C=C/C1=[N+](CC)CCS1	i	2.8
71	Cc1ccc(-c2nnn(CC(=O)N(CCN3CCOCC3)C(C(=O)NC(C)(C)C)c3ccc(C)o3)n2)cc1 (stereo unspecified)	-6.05*	-1.28*
72	Cc1ccc(S(=O)(=O)N(C)C)cc1NC(=O)COC(=O)CCCOc1ccccc1	i	-0.33

no.	Structure	KCNQ2 block	KCNQ2 block baseline
73	COc1cc(/C=C(/Sc2nnc(-c3ccc(F)cc3)o2)C(=O)O)ccc1OC(F)F	i	1.06
74	Cc1cc(O)c(NC(=S)NC(=O)c2ccc(-c3ccc(Cl)cc3)o2)cc1C	i	0.21
75	CCOc1ccc(C(c2c(NC(=O)c3ccccc3)sc(C)c2C)N2CCN(C)CC2)cc1 (stereo unspecified)	i	0.1
76	CCCN1C(=O)c2ccccc2NC1c1ccc(Cl)cc1 (stereo unspecified)	i	0.51
77	COc1cccc(OC)c1C(=O)Nc1nnc(C(C)C)s1	i	0.18
78	Cc1cc(NC(=O)COC(=O)C2CC(=O)N(c3ccc(C)c(Cl)c3)C2)no1 (stereo unspecified)	i	-0.45
79	COc1ccc(NC(=O)c2oc3ccccc3c2NC(=O)c2ccco2)cc1	i	-1.49
80	CC1(c2nnc(-c3cccc(Cl)c3)o2)CC(c2ccccc2)=NO1 (stereo unspecified)	i	-0.12

no.	Structure	KCNQ2 block	KCNQ2 block baseline
81	Cc1ccc(S(=O)(=O)NCc2ccc3c(c2)cc(C)n3C)cc1	i	0.38
82	Cc1nnc(SCC(=O)N2CC(=O)Nc3ccccc32)n1Cc1ccccc1	i	0.64
83	O=C(NCCNc1ccc([N+](=O)[O-])cc1C(F)(F)F)c1cccc(F)c1	i	1.08
84	CC(C)NS(=O)(=O)c1ccc(CCC(=O)NCc2ccc3c(c2)OCO3)cc1	i	0.18
85	O=C(Nc1cccn(Cc2c(Cl)cccc2Cl)c1=O)c1c(Cl)cccc1Cl	i	-2.73
86	CCn1c(SCC(=O)c2ccc(Cl)s2)nnc1-c1cccs1	i	-0.07
87	COc1cc(C(=O)N2CCc3ccccc32)cc(OC)c1OC	i	0.29
88	OCC[C@@H]1C[C@H](O)[C@@H](O)[C@]2(CCc3ccccc3O2)O1	i	0.93

Overlap with the part before: 2 entries, then new ones.
no.	Structure	KCNQ2 block	KCNQ2 block baseline
87	COc1cc(C(=O)N2CCc3ccccc32)cc(OC)c1OC	i	0.29
88	OCC[C@@H]1C[C@H](O)[C@@H](O)[C@]2(CCc3ccccc3O2)O1	i	0.93
89	O=C(NCc1nc2ccccc2[nH]1)C1=C[C@@H](c2ccc(C(F)(F)F)cc2)C[C@@H](OCc2ccc(CO)cc2)O1	i	-2.62
90	O=C1NC(=O)C2(COC3(CCCC3)OC2)S1	i	0.77
91	COc1cc(OC)cc(C(=O)N/N=C/c2ccc(OC)c(COc3ccc4ccccc4c3)c2)c1	i	-2.08
92	COc1ccc(Nc2nc(-c3cccc([N+](=O)[O-])c3)nc3ccccc23)c(OC)c1	i	1.62
93	Cc1ccc(S(=O)(=O)NCc2ccccc2)cc1C(=O)N1CC(C)CC(C)C1 (stereo unspecified)	-6.01*	-2.62*
94	O=C(/C=C/c1cccc([N+](=O)[O-])c1)c1ccco1	i	-0.16
95	N#Cc1c2c(c(-c3ccccc3)[nH]c1=O)CCCC2	i	3.17
96	COc1cccc2c1C(=O)c1c(O)c3c(c(O)c1C2=O)C[C@@](O)(C(=O)CO)C[C@@H]3O[C@H]1C[C@H](N)[C@H](O)[C@H](C)O1	i	72.6

no.	Structure	KCNQ2 block	KCNQ2 block baseline
97	O=C(O)/C=C/c1cn(Cc2ccccc2)nc1-c1ccc(Cl)cc1	i	0.01
98	COc1ccc(C(CNS(=O)(=O)c2ccc(C)cc2)N2CCN(C)CC2)cc1 (stereo unspecified)	i	1.32
99	Cc1cccc(-n2nc(C(=O)Nc3ccccc3)n3c(=O)cc(-c4ccccc4)nc23)c1	i	0.57
100	COc1ccc(CCNC(=O)c2nn(C)c3c2CS(=O)(=O)c2ccccc2-3)c(OC)c1	i	-1.64
101	CN(NC(=O)COc1ccccc1)C1=NS(=O)(=O)c2ccccc21	i	-2.41
102	COc1ccc(N2CCCC2)c(NC(=O)COc2ccccc2)c1	i	0.24
103	O=C(CCC(=O)c1cccs1)NNC(=O)c1ccccc1O	i	0.01
104	CC1(C)Cc2c(cnn2-c2ccc(F)cc2)C(NC(=O)c2cnccn2)C1 (stereo unspecified)	i	-0.35

Part of the list above, set out differently:
100: COc1ccc(CCNC(=O)c2nn(C)c3c2CS(=O)(=O)c2ccccc2-3)c(OC)c1
  KCNQ2 block: i	KCNQ2 block baseline: -1.64
101: CN(NC(=O)COc1ccccc1)C1=NS(=O)(=O)c2ccccc21
  KCNQ2 block: i	KCNQ2 block baseline: -2.41
102: COc1ccc(N2CCCC2)c(NC(=O)COc2ccccc2)c1
  KCNQ2 block: i	KCNQ2 block baseline: 0.24

Single records, as listed above. Order of screens: KCNQ2 block | KCNQ2 block baseline
`CCc1nnc(NC(=O)CSc2nnc(CNc3ccc(F)cc3)n2C2CCCCC2)s1` reads i | 0.66
`Cc1nnc(SCC(=O)N2CC(=O)Nc3ccccc32)n1Cc1ccccc1` reads i | 0.64

More entries follow:
no.	Structure	KCNQ2 block	KCNQ2 block baseline
105	O=C(CCCN1C(=O)/C(=C/c2ccccc2Cl)SC1=S)NCCCN1CCOCC1	i	-1.44
106	COc1cc(S(=O)(=O)N2CCN=C2c2ccccc2)c(OC)cc1Cl	i	1.69
107	CCOC(=O)c1sc(NC(=O)CCSC)nc1C	i	-0.1
108	CN(C#N)c1nc(N2CCOCC2)nc(N2CCOCC2)n1	i	1.49
109	FC(F)(F)c1ccc(CN2C[C@@H]3C(c4ccc(C(F)(F)F)cc4)C4(c5cccnc5)CC3(C4)[C@H]2c2ccccc2)cc1 (stereo partly specified)	i	-0.06
110	Cc1ccc(C(=O)O)cc1N1C(=O)CCCC1=O	i	0.27
111	CC(C)C[C@@]12C(=O)N(c3cccc(Br)c3)C(=O)N1[C@H](c1ccc(F)cc1)[C@@H]1C(=O)N(C3CCCCC3)C(=O)[C@@H]12	i	0.56
112	Cn1c(C2=C(O)CN(Cc3ccccc3)C2=N)nc2ccccc21	i	-0.5
113	COc1cccc(CNC(=O)CCC2CCCN(C(=O)C3=CC(=O)CC(C)(C)O3)C2)c1 (stereo unspecified)	i	1.38
